# From PubChem
# HNF4A DNA FP = change in binding of human HNF4 alpha to DNA; P41235; HNF4a-FITC DNA binding, fluorescence polarization, 1 h; activity change, % at 10 µM; actives 0.3% (n = 360,000); AID 1224865; in the data active = activity change above about 30%, passing the limit was not always enough;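 also: controls were the assay level and a saturating level of protein; the project sought stronger binding though the title names inhibitors; some compounds called inactive have numbers as strong as hits; positive values seem to mean higher polarization but the record does not say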
# Target sequence (P41235 whole entry, looked up): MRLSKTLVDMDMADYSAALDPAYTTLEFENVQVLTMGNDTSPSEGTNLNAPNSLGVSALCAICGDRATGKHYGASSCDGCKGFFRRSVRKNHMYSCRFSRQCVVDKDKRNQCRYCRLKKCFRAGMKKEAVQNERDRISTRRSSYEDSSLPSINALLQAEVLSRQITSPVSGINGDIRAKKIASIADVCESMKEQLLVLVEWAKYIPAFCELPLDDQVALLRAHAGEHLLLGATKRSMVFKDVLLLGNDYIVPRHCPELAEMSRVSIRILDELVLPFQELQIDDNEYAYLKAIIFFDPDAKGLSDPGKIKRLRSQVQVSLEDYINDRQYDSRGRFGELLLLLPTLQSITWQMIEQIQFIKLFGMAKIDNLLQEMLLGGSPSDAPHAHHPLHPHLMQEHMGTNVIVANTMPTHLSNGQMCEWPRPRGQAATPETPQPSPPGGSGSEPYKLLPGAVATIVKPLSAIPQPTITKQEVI
# Calb FLC = C. albicans growth modulation with fluconazole; AID 1979; growth inhibition, % (test concentration not listed); actives 0.57% (n = 300,000); C. albicans CaCi-2 (fluconazole-resistant clinical isolate) + fluconazole, Alamar Blue growth, 48 h;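 active = most replicates above 75%; inconclusive = exactly half above 75%; inactive = most below 75%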;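 also: all wells also contain fluconazole at 8 µg/ml as a sub-toxic cotreatment; 0% = median of DMSO wells and 100% = median of geldanamycin control wells; wells of about 8 µL received 7.5 nL stock; the first replicate is given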
# ALR inh = inhibitors of human sulfhydryl oxidase ALR. purified ALR, DTT oxidation, H2O2 HRP-luminol luminescence. inhibition, % (concentration not given with the values). actives 3.8% (n = 290,000);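 active = mean and each replicate at 75% or more; inconclusive = only one of the two met; inactive = neither met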;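 also: stock transfer was 7.5 nL into about 7.5 µL; 0% = neutral wells and 100% = wells with inactivated enzyme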
# Target sequence (P55789 whole entry, looked up): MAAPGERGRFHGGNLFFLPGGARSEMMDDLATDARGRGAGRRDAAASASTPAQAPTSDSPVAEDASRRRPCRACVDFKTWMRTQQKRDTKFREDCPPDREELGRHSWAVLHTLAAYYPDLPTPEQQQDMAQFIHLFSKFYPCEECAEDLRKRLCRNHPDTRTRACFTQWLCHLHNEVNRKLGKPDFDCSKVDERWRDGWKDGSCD
# LANA-H2B inh = blocks KSHV LANA binding to histone H2A/H2B; Q9QR71; cell-free LANA-H2A/H2B peptide, fluorescence polarization; inhibition, % (no concentration beside the values); actives 0.6% (n = 320,000); AID 2629; in the data active = inhibition mostly above about 10%, no sharp cut-off; inactive = mostly below about 6.7%;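 also: stock transfer was 7.5 nL into about 10 µL; 0% = median of vehicle wells and 100% = median of positive control wells; one replicate is shown; the record names a cut of 25% in any replicate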
# B2AR ag = agonists of human beta-2 adrenergic receptor inducing internalization | P07550 | response, % (test concentration not listed) | Am2.2-beta2AR cells, FAP receptor internalization, flow cytometry; reference of the scale not given here | actives 0.43% (n = 340,000) | AID 504454;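 active = response above a set limit, near 3 SD of response in nonfluorescent compounds, cut at about 42% in these data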;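 also: stock transfer was 100 nL into about 11 µL; a reference agonist was the positive control; negative values mostly stem from fluorescent compounds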
# Target sequence (P07550 whole entry, looked up): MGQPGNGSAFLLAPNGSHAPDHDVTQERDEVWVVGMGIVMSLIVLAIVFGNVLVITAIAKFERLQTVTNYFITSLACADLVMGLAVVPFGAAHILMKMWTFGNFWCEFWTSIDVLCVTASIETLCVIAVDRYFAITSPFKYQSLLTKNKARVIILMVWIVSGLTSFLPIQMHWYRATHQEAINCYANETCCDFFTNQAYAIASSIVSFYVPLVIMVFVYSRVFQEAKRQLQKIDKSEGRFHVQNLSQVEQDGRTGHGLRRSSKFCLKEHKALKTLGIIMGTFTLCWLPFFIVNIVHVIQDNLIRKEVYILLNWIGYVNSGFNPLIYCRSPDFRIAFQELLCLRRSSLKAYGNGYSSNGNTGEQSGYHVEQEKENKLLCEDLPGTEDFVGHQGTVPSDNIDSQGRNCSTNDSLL
# RanGTP-Impb inh = disruptors of Ran-importin-beta complex formation – biochemical, FRET, CFP-Ran, YFP-importin-beta, homogeneous, primary screen. cell-free CFP-Ran/YFP-importin-beta FRET ratio. inhibition, % (concentration not given with the values). actives 1.1% (n = 300,000);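 active = most replicates above 15%; inconclusive = exactly half above 15%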;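 also: 0% = DMSO wells and 100% = Ran loaded with GDP instead of GTP; wells of about 40 µL received 100 nL stock; the first replicate is given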
# Vif A3G = HIV-1 Vif–A3G interaction blockers – biochemical, TR-FRET, GST-Vif 1-94, biotin-A3G peptide, dose response retest, primary screen (AID 1117319); TR-FRET GST-Vif / biotin-A3G peptide binding; higher % means a stronger effect; test concentration not given here; strong numbers were not always called active; one-dose inhibition, %; IC50 in µM for titrated hits; actives 0.57% (n = 260,000);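 active = above the screen mean plus three standard deviations and confirmed in dose response; inconclusive = results disagree or hit not tested in dose response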;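 also: Vif residues 1-94 fused to GST binding biotinylated APOBEC3G peptide 110-148; 0% = full assay without inhibitor and 100% = GST in place of GST-Vif; retest series ran down from 100 µM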
# An asterisk follows results filed as active; ? = inconclusive; . = no result given; & = joins results of further samples.
# Order of values: HNF4A DNA FP	Calb FLC	ALR inh	LANA-H2B inh	B2AR ag	RanGTP-Impb inh	Vif A3G
[1] Cc1cc(Cl)c(Cl)cc1S(=O)(=O)NCCCn1ccnc1
 : 6.1	7	-7	4.6	-16	-1.8	.
[2] O=C(Nc1ccccc1)O/N=C/c1ccncc1
 : -4.0	-7	55	-1.5	14	?	17%
[3] O=C(Nc1ccccc1)Nc1c(F)cccc1F
 : -0.2	-3	-5	-4.8	3	-0.1	?
[4] Cc1cc2c(=O)[nH]c(Cc3ccccc3)nc2s1
 : 3.2	-7	-1	-6.3	9	-1.8	.
[5] Cc1cc(NC(=O)COc2ccc3ccccc3c2)no1
 : -2.9	1	-8	-0.5	-4	?	.
[6] O=C(Nc1cccc(Cl)c1)OCc1cncs1
 : 0.1	-8	-2	-3.1	-6	1.4	-4%
[7] COC(C(=O)Nc1c(F)cccc1F)c1ccccc1 (configuration not stated)
 : 0.8	3	-2	-3.4	2	-0.2	?
[8] Cc1cc(NCCN2CCOCC2)n2ncc(-c3ccccc3)c2n1
 : 2.0	5	.	-1.4	-2	-0.3	8%
[9] O=C(O)/C=C/C(=O)Nc1nc(-c2ccc3ccccc3c2)cs1
 : -0.5	1	10	0.7	-4	?	.
[10] Cc1ccc(NC(=O)CCC(=O)c2ccc(F)cc2)cc1Cl
 : 0.5	-15	-19	1.8	-3	-2.7	-5%
[11] COc1ccc(-c2nnc(SCC(=O)NCc3cccs3)n2C)cc1
 : 6.5	-4	.	-0.4	-4	6.2	-5%
[12] C=CCn1c(Cn2nnc3ccccc32)nnc1SCC(=O)N/N=C/c1cc(Br)cc(OC)c1O
 : 2.0	12	98*	2.0	-2	-1.6	3%
[13] CCOC(=O)c1c(S(=O)(=O)N2CCCC(C(=O)Nc3ccc(C)cn3)C2)c(C)n(C)c1C (configuration not stated)
 : -0.2	-8	-3	3.0	-17	0.0	-3%
[14] Cc1nc(NC(=O)CN2CCOCC2)sc1-c1ccccc1
 : 1.0	43	-23	2.7	3	-1.4	69%
[15] CC(C)C1N=C(c2ccc3c(c2)OCO3)CC(c2ccccc2O)N1 (configuration not stated)
 : 6.1	-17	20	10	1	6.0	6%
[16] CCOC(=O)Nc1ccc(NC(=O)c2c(OC)cccc2OC)cc1
 : 0.0	17	-5	-3.4	0	3.5	0%
[17] CCCn1c(N2CCN(Cc3ccc(Cl)cc3)CC2)nc2ccccc21
 : -3.9	52	-3	1.4	6	-3.9	15%
[18] CN(c1ccc(F)cc1)S(=O)(=O)c1ccc(Cl)c(C(=O)NCc2ccco2)c1
 : 1.3	.	44	1.1	-4	.	.
[19] CC(CC(=O)N(C)C1CCCCC1)S(=O)(=O)c1ccc2c(c1)NC(=O)CO2 (configuration not stated)
 : -2.0	-5	-3	0.3	1	3.8	0%
[20] O=S(=O)(c1ccc(F)cc1)N1CCCNCC1
 : 1.9	-7	-27	2.5	2	-2.0	-9%
[21] COC(C[C@H]1O[C@@H]1[C@H](O)COCc1ccccc1)OC
 : 2.4	.	-2	0.0	6	.	.
[22] CCC1=NN(C(=O)C(=O)Nc2ccccc2OC)C(O)(C(F)(F)F)C1 (configuration not stated)
 : -1.3	-20	.	3.6	4	5.6	-5%
[23] CCOCCCNCc1cccc(OC)c1
 : -1.2	38	-13	-2.0	-2	0.8	0%
[24] O=[N+]([O-])c1ccc(NNS(=O)(=O)c2cc(Cl)ccc2Cl)nc1
 : 11	-26	100*	0.9	19	2.0	.
[25] Cc1nn(CCC(=O)NNC(=S)Nc2ccc(F)cc2)c(C)c1[N+](=O)[O-]
 : 1.9	-10	37	-2.3	6	1.0	19%
[26] CS(=O)(=O)NN1C(=O)c2ccccc2NC1c1cc2ccccc2nc1Cl (configuration not stated)
 : -3.9	23	.	1.5	-3	?	25%
[27] Cc1[nH]nc(N=CC2=C(O)CC(C)(C)CC2=O)c1-c1ccccc1
 : 4.7&0.0	-29	-14	-0.2	-10&-2	-1.0	-7%&6%
[28] CC1=C(C(N)=O)C(c2ccc(F)cc2)n2nc(CCCO)nc2N1 (configuration not stated)
 : 0.2	3	15	-0.3	-1	2.7	-11%
[29] CC(=O)Nc1ccc(Cc2ccncc2)cc1
 : -0.7	3	.	-2.7	-5	-1.9	-3%
[30] CCC1(C)OCC(Cn2c3ccccc3c3ccccc32)O1 (configuration not stated)
 : .	-18	4	7.7	.	-0.6	5%

# In a second layout: results already given.
cpd | structure | HNF4A DNA FP | Calb FLC | ALR inh | LANA-H2B inh | B2AR ag | RanGTP-Impb inh | Vif A3G
25 | Cc1nn(CCC(=O)NNC(=S)Nc2ccc(F)cc2)c(C)c1[N+](=O)[O-] | 1.9 | -10 | 37 | -2.3 | 6 | 1.0 | 19%
26 | CS(=O)(=O)NN1C(=O)c2ccccc2NC1c1cc2ccccc2nc1Cl (configuration not stated) | -3.9 | 23 | . | 1.5 | -3 | ? | 25%
27 | Cc1[nH]nc(N=CC2=C(O)CC(C)(C)CC2=O)c1-c1ccccc1 | 4.7&0.0 | -29 | -14 | -0.2 | -10&-2 | -1.0 | -7%&6%
28 | CC1=C(C(N)=O)C(c2ccc(F)cc2)n2nc(CCCO)nc2N1 (configuration not stated) | 0.2 | 3 | 15 | -0.3 | -1 | 2.7 | -11%
29 | CC(=O)Nc1ccc(Cc2ccncc2)cc1 | -0.7 | 3 | . | -2.7 | -5 | -1.9 | -3%

# (next part)
# Order of values: HNF4A DNA FP	Calb FLC	ALR inh	LANA-H2B inh	B2AR ag	RanGTP-Impb inh	Vif A3G
[31] O=C(C1CCN(S(=O)(=O)c2ccccc2)CC1)N1CCN(Cc2ccccc2)CC1
 : 2.3	-28	-12	-5.7	5	3.3	.
[32] CCCCOc1ccc(CNC(=O)NS(=O)(=O)c2ccc(OCC)cc2)cc1
 : -0.6	7	0	1.6	-4	-0.3	8%
[33] CCCCCn1c(SCC(=O)CC(=O)OCC)nc2cc(C(=O)N3CCC(C(N)=O)CC3)ccc2c1=O
 : -6.1	-1	91*	2.9	-8	-2.5	-3%
[34] COc1ccc(C2=NN(C(C#N)c3ccc(OC)c(OC)c3)C(c3ccccc3)C2)cc1 (configuration not stated)
 : 2.4	-19	7	0.2	2	3.2	-4%
[35] CCN(C(=O)c1ccc2c(c1)OCO2)C12CC3CC(CC(C3)C1)C2
 : 1.8	.	-1	-3.0	2	.	.
[36] Cc1ccccc1NS(=O)(=O)c1ccc(C(=O)NCC(c2ccco2)N2CCCCC2)cc1 (configuration not stated)
 : 3.9	4	-3	-7.4	1	2.7	-6%
[37] COc1ccccc1NC(=O)COc1ccc(Br)cc1CNC1CCCC1
 : 2.7	?	1	11	2	0.4	?
[38] Cn1c(SCC(=O)c2ccc(O)c(O)c2)nnc1-c1ccccc1
 : 1.9	-4	93*	1.7	-1	-1.7	4%
[39] CC(C)CCN1CCNC(=O)C1CC(=O)Nc1ccc(F)cc1 (configuration not stated)
 : 0.2	-6	-4	6.1	1	0.5	-2%
[40] CSCCC1NC(=O)C(C(C)=Nc2ccccc2)=C1O (configuration not stated)
 : -0.9	.	.	.	-14	.	1%
[41] C=CCN1C=C2C(=O)C(C)(OC(=O)c3cnc4ccccc4n3)C(=O)C=C2C=C1/C=C/COC (configuration not stated)
 : -9.5	11	-13	0.3	0	-2.2	.
[42] CCCNC(=O)c1cc(-c2ccco2)on1
 : 3.2	-24	3	-7.4	-7	2.7	29%
[43] Cc1ccc(/C=C/C(=O)OCC(=O)NC(=O)NCc2ccccc2)cc1
 : -6.1	.	-3	2.7	11	.	5%
[44] CC(=O)N1c2ccc(S(=O)(=O)NCC3CCC(C(=O)N4CCC(C)CC4)CC3)cc2CC1C (configuration not stated)
 : -1.0	4	-3	-3.4	-5	4.0	.
[45] Cn1c(=O)c2c(nc(SCC(=O)NCc3ccc4c(c3)OCO4)n2Cc2ccccc2)n(C)c1=O
 : 0.7	-2	3	0.2	-6	5.0	-5%
[46] CCOc1ccc2nc(SCC(=O)Nc3cccc(S(=O)(=O)NC4=NCCCCC4)c3)[nH]c2c1
 : 0.5	16	92*	0.4	1	0.0	.
[47] COc1ccccc1C(=O)Nc1nnc(SCC(=O)NCC2CCCO2)s1 (configuration not stated)
 : 0.2	4	-20	-16	7	5.9	0%
[48] CC1=C(C(=O)OCC2CCCO2)C(c2ccccc2)NC(=O)N1 (configuration not stated)
 : -2.6	3	-1	1.9	5	-0.2	0%
[49] COc1ccc(/C=C2/SC(=S)N(CCCC(=O)Nc3ccc(O)cc3)C2=O)cc1OC
 : 18	15	.	2.2	19	-4.8	10%
[50] CC(=O)OCCOCn1cnn2c(=O)c(Br)c(C)nc12
 : -2.1	-6	1	1.6	-5	1.8	-6%
[51] CCOC(=O)C1CCN(C(=O)Cn2cnc3sc(C)c(S(=O)(=O)N4CCCCC4)c3c2=O)CC1
 : 0.3	-6	-1	16*	3	3.2	.
[52] CSc1ccccc1C(=O)N1CCc2ccccc2C1
 : -2.8	-17	.	.	0	7.8	-4%
[53] O=C(Nc1cc2c3c(c1)CC(=O)N3CCC2)C1CCCCC1
 : 2.2	-11	-4	0.1	1	-4.3	2%
[54] O=C(NCc1ccc(Cl)cc1)c1ccc(CS(=O)Cc2cccc(Cl)c2)o1 (configuration not stated)
 : -1.3	-4	0	-1.0	-7	-0.3	-7%
[55] CCCCCc1nnc(NC(=O)C2=COCCO2)s1
 : 2.4	4	-2	0.5	-10	9.9	2%
[56] CC(C)n1cc(-c2nc(C(=O)NN)cs2)c(=O)n(Cc2ccccc2)c1=O
 : 0.0	4	0	-2.2	-2	1.9	25%
[57] O=C1CCc2cc(NS(=O)(=O)c3ccc([N+](=O)[O-])cc3)cc3c2N1CC3
 : 3.3	35	.	.	0	0.5	5%
[58] CCOC(=O)CNS(=O)(=O)c1c(C)noc1C
 : 2.3	1	-2	5.7	-2	0.7	5%
[59] O=C(c1ccccc1C(=O)N1CCN(c2ccc(F)cc2)CC1)N1CCN(c2ccc(F)cc2)CC1
 : 2.0	-4	65	3.0	3	0.4	1%
[60] Cc1ccc(/C=N/NC(=O)c2ccc3ccccc3c2)s1
 : -2.9	-2	11	4.9	2	2.2	5%

(61) CCOC(=O)c1[nH]c2ccccc2c1NC(=O)C1CCCC1
(62) CCN(CC)CCCNc1nc2ccccc2[nH]1
(63) O=C(NCCC1=CCCCC1)c1cccc2c1C(=O)N(C1CCCCC1)C2
(64) CCOC(=O)CSc1nc2sc3c(c2c(=O)n1C1CCCCC1)CCN(C)C3
(65) CCCCc1cc(=O)oc2c(C)c(OCC(=O)NCC3CCC(C(=O)O)CC3)ccc12 (configuration not stated)
(66) O=C(NC1CCCCC1)C(c1ccc(F)cc1)N(Cc1ccco1)C(=O)c1ccccn1 (configuration not stated)
(67) O=CN1CCN(C(=O)c2cccc([N+](=O)[O-])c2)CC1
(68) Cc1ccc(CSCC(=O)NCCc2ccccc2)cc1
(69) Cc1ccc(N2CC(C(=O)Nc3ccc(S(=O)(=O)Nc4nccs4)cc3)CC2=O)cc1C (configuration not stated)
(70) CN(CC(=O)Nc1ccc(N2CCOCC2)cc1)C(=O)CSc1ccc(Br)cc1
(71) CSC1=NCCN1C(=O)c1ccco1
Screen / compound no.	61	62	63	64	65	66	67	68	69	70	71
HNF4A DNA FP	-2.0	2.9	-3.8	16	1.8	4.6	1.9	1.4	-2.3	2.8	2.5
Calb FLC	-3	-8	-11	30	0	3	1	-9	-2	-5	-3
ALR inh	-11	-3	-15	100*	.	-1	-13	-31	.	71	-3
LANA-H2B inh	1.2	-2.7	0.0	-1.2	0.6	-9.3	-0.3	2.9	13	-1.4	-2.9
B2AR ag	-2	1	-3	3	3	6	9	-1	0	5	12
RanGTP-Impb inh	2.6	1.9	6.1	5.4	-0.6	?	4.7	2.7	-2.2	-1.4	?
Vif A3G	.	0%	0%	18%	.	-2%	.	0%	4%	.	-5%
